Screens deposited in PubChem BioAssay by SRMLSC.
H5N1 CPE = MDCK cell protection from H5N1 avian flu; inhibition, % at 50 µM; cytopathic effect, luminescence, 72 h; active compounds read high; no value below 0 was filed and about half of the inactive calls have no number; reference of the scale not given here; 96,000 compounds, 0.07% hits; in the data active = inhibition above about 25%
* marks the source's active call; other numbers are inactive results; i = inactive. This is a subset. The share of hits here may be higher or lower than overall.

SMILES	H5N1 CPE
NCCCCCc1nnc(SCC(=O)Nc2cccc(Cl)c2)o1	i
CCCSC1=N/C(=C\C=C\c2ccco2)C(=O)S1	i
O=C(Nc1ccc(NC(=O)c2ccco2)cc1)c1ccc2c(c1)OCO2	i
CN(C)S(=O)(=O)c1cccc(C(=O)NCc2ccco2)c1	i
Cc1cccc(N=c2oc3cc(O)ccc3cc2C(N)=O)c1	1.7
Cc1cccc(/C=N/n2c(C)nnc2C)c1	1.5
O=Cc1ccc(Sc2nnc(-c3ccccc3)o2)c([N+](=O)[O-])c1	0.8
Nc1nc(-c2ccco2)nn1C(=O)c1cccnc1	0.4
CC12C(=O)N(c3ccccc3C(=O)O)C(=O)C1C1C=CC2C1 (stereo not drawn)	i
CCOC(=O)C(C)Oc1ccccc1C1NC(=O)NC(C)=C1C(=O)Nc1ccc(C)c(C)c1 (stereo not drawn)	1.1
C=CCc1cccc(/C=N/c2ncn[nH]2)c1O	0.3
Nc1cccnc1Sc1cc(Cl)cc(Cl)c1	i
COc1ccc(C2=CC(c3sccc3C)n3nnnc3N2)cc1 (stereo not drawn)	i
CN(CC(=O)Nc1ccncc1)S(=O)(=O)c1ccc(Br)cc1	0.3
O=C(Nc1ccccc1N1CCOCC1)c1ccccc1NS(=O)(=O)c1ccc(F)cc1	i
NC(=O)C1CCN(Cc2nc3ccccc3c(=O)[nH]2)CC1	0.3
CCCc1ccc(-c2c(C)sc(NC(=O)c3ccnn3C)c2C#N)cc1	4.5
Cc1c(OCc2nn[nH]n2)ccc2c(-c3ccccc3)cc(=O)oc12	i
Cc1cc(C)nc(NC(=O)c2cccc([N+](=O)[O-])c2C)n1	0.2
CCSc1nnc(N(CCC(=O)O)CCC(=O)O)s1	i
O=c1c2c(-c3ccc(Cl)cc3)csc2nc2n1CCC2	i
CC(CC(=O)Nc1ccc(Cl)c([N+](=O)[O-])c1)c1ccccc1 (stereo not drawn)	i
CCOc1ccc(N(CC(=O)Nc2ccc(OC)cc2)S(C)(=O)=O)cc1	i
O=C(O)CCC(=O)NC1CCCCC1	i
Cc1cc(S(=O)(=O)NCc2ccccc2)ccc1OCC(=O)N1CCN(C)CC1	0.9

New compounds follow:
SMILES	H5N1 CPE
Cc1nc(N)nc2c1CCCC2	i
O=C(CCN1C(=O)c2ccccc2C1=O)N1CCN(c2ccccc2)CC1	i
COc1cc(CNn2cn[nH]c2=S)cc(Cl)c1OCc1ccccc1	0.1
O=C(NCc1cccnc1)C1CC(=O)N(C2CCCCC2)C1 (stereo not drawn)	i
CCC(C)NS(=O)(=O)c1ccc(S(=O)(=O)Nc2cc3c(cc2C(C)=O)OCO3)cc1 (stereo not drawn)	0.7
CCOCCCNC(=O)C(NC(=O)C1CCC(=O)N1)c1ccc(C)cc1 (stereo not drawn)	i
Cc1ccccc1NC(=O)Cc1nnc(SCC(=O)c2ccc(Br)cc2)n1C	0.3
N#C/C(C(=O)Oc1ccccc1)=C1\C=Cc2ccccc2N1	i
NNS(=O)(=O)c1ccc(Cc2ncc(C(F)(F)F)cc2Cl)s1	i
COc1ccc(Oc2c(Cl)cnn(-c3ccccc3)c2=O)cc1	2.5
COc1ccc(S(=O)(=O)NCc2ccc(C(=O)N(C)Cc3ccco3)cc2)cc1	3.8
O=C(Cn1nnc(-c2ccc(N3CCOCC3)cc2)n1)OC1CCCCC1	i
Cc1[nH]c2ccccc2c1Cc1n[nH]c(=S)o1	1.2
Cc1cccc(N2CCN(c3cccc(C)c3)C2c2cccnc2)c1	i
COC(=O)CNC(=O)c1ccccc1F	i
COc1cccc(-c2nn(-c3ccccc3)cc2/C=C\C(=O)c2cccs2)c1	0.1
Cn1ccnc1SCc1cn2cc(Br)ccc2n1	i
CCc1cc2c(=O)c(-c3cscn3)coc2cc1O	0.2
COc1ccc(N2C(=O)c3ccccc3NC23CCCCC3)cc1	i
Cc1ccc(S(=O)(=O)Nc2ccccc2-c2ccccc2)cc1	i
CN1c2cccc3cccc(c23)N(C)C1c1cccs1	i
CC1Oc2ccccc2N(CC(=O)NCc2cccs2)C1=O (stereo not drawn)	0.3
Cc1cc(C(=O)CSc2nc(N)cc(N)n2)c(C)n1CCc1ccc(F)cc1	i
CCOc1ncccc1C(=O)OCC(=O)c1c(N)n(C)c(=O)n(C)c1=O	i
COc1cc(/C=C(/C#N)c2nc3ccccc3[nH]2)ccc1Oc1ncccc1[N+](=O)[O-]	i

Copied from the listing for reference:
SMILES	H5N1 CPE
NCCCCCc1nnc(SCC(=O)Nc2cccc(Cl)c2)o1	i
CCCSC1=N/C(=C\C=C\c2ccco2)C(=O)S1	i
O=C(Nc1ccc(NC(=O)c2ccco2)cc1)c1ccc2c(c1)OCO2	i
CN(C)S(=O)(=O)c1cccc(C(=O)NCc2ccco2)c1	i
Cc1cccc(N=c2oc3cc(O)ccc3cc2C(N)=O)c1	1.7
Cc1cccc(/C=N/n2c(C)nnc2C)c1	1.5
O=Cc1ccc(Sc2nnc(-c3ccccc3)o2)c([N+](=O)[O-])c1	0.8
Nc1nc(-c2ccco2)nn1C(=O)c1cccnc1	0.4
CC12C(=O)N(c3ccccc3C(=O)O)C(=O)C1C1C=CC2C1 (stereo not drawn)	i
CCOC(=O)C(C)Oc1ccccc1C1NC(=O)NC(C)=C1C(=O)Nc1ccc(C)c(C)c1 (stereo not drawn)	1.1
C=CCc1cccc(/C=N/c2ncn[nH]2)c1O	0.3
Nc1cccnc1Sc1cc(Cl)cc(Cl)c1	i
COc1ccc(C2=CC(c3sccc3C)n3nnnc3N2)cc1 (stereo not drawn)	i
CN(CC(=O)Nc1ccncc1)S(=O)(=O)c1ccc(Br)cc1	0.3
O=C(Nc1ccccc1N1CCOCC1)c1ccccc1NS(=O)(=O)c1ccc(F)cc1	i
NC(=O)C1CCN(Cc2nc3ccccc3c(=O)[nH]2)CC1	0.3
CCCc1ccc(-c2c(C)sc(NC(=O)c3ccnn3C)c2C#N)cc1	4.5
Cc1c(OCc2nn[nH]n2)ccc2c(-c3ccccc3)cc(=O)oc12	i
Cc1cc(C)nc(NC(=O)c2cccc([N+](=O)[O-])c2C)n1	0.2
CCSc1nnc(N(CCC(=O)O)CCC(=O)O)s1	i

The results go on:
SMILES	H5N1 CPE
CCOC(=O)c1nnc(-c2ccccc2)nc1Oc1ccc(Cl)cc1	i
COC(=O)/C=C1\NCCSC1=O	i
CCC(Oc1nc2ccccc2nc1-c1ccccc1NC(C)=O)C(=O)c1ccccc1 (stereo not drawn)	i
O=C(Nc1nc2c(s1)CCCC2)Oc1ccccc1	i
CC1CCN(CC(=O)N2CCCc3c2c(=O)oc2ccc(OCc4ccccc4)cc32)CC1	i
Cc1cccc(OCc2nnc(SCn3nnc4ccccc4c3=O)o2)c1	i
Cc1cc(-n2c(=O)c(C#N)cc3c(=O)n4ccccc4nc32)no1	2.4
O=C(Nc1nccs1)c1ccc2nccnc2c1	1.4
O=C(c1ccc2c(=O)n(Cc3ccco3)c(=S)[nH]c2c1)N1CCN(c2ccccc2)CC1	0.2
CCOc1ccccc1C(=O)Nc1cc(Cl)ccc1O	1.2
O=C(CSc1ncn(-c2ccccc2)n1)Nc1nc2c(s1)CCCC2	0.8
CN(C)c1ccc(/C=C/c2ccncc2)cc1	i
Cc1cccc(CSCc2nnc(N)s2)c1	0.3
CCN(CC)S(=O)(=O)c1cc(C)c(C)cc1Br	1.7
COC(=O)c1ccccc1NC(=O)CN(c1cc(OC)ccc1OC)S(C)(=O)=O	0.1
COc1ccc(S(=O)(=O)N2CCC(C(=O)NCc3cccc(OC)c3)CC2)cc1	0.1
Cc1onc(-c2ccccc2)c1C(=O)N1CCN(C(=O)c2ccco2)CC1	0.5
COc1ccc(Cl)cc1N(CC(=O)N1CCN(Cc2ccccc2)CC1)S(C)(=O)=O	0.3
CC(C)(CNC(=O)C1CCCC1)CNC(=O)C1CCCC1	0.9
COC(=O)/C(C(C)=O)=C(\C=C\N(C)C)N(C)C	1.1
Cc1ccc(OCCC(=O)OCC(=O)C(C)(C)C)cc1	0.8
Cc1csc(NC(=O)CSc2nnc(-c3ccoc3C)n2CCc2ccccc2)n1	i
CCN(CC)CCCn1c(=S)[nH]c2cc(C(=O)OC)ccc2c1=O	1.1
CCOC(=O)C1=C(C)NC(=O)NC1c1ccc(OCC(=O)N2CCCCC2)cc1 (stereo not drawn)	i
O=C(C1CCC(N2C(=O)C3CC=CCC3C2=O)CC1)N1CCCCC1 (stereo not drawn)	i

Going on with the list:
SMILES	H5N1 CPE
C=CCn1c(O)c(C(CC)=NC2CC2)c(=O)[nH]c1=O	0.6
COCCCn1c(=S)[nH]c2ncccc2c1=O	0.9
Cc1cccc2cc(COC(=O)C3CCCO3)c(=O)[nH]c12 (stereo not drawn)	i
COC(=O)c1c(NC(=O)c2ccc(C)cc2)sc(Cc2ccccc2)c1C	i
O=c1[nH]nc(Cc2ccc3ccccc3n2)c2ccccc12	1.4
CC(C)C(=O)Nc1cccc(NC(=S)NC(=O)c2ccc(Cl)cc2)c1	0.8
CCC1(C)Cc2c(sc3nnn(Cc4ccccc4Cl)c(=O)c23)CO1 (stereo not drawn)	0.9
COc1ccc(C2N(C(=O)N3CCOCC3)CCN2S(=O)(=O)c2ccc(C)cc2)cc1 (stereo not drawn)	0.2
COC(=O)CNC(=O)C(C)(C)Oc1ccc(Cl)cc1	i
COC(=O)c1cc2c(ccn2-c2ccc(F)cc2)n1CC(=O)N1CCN(C(=O)c2ccco2)CC1	i
O=C(CSc1nnnn1-c1ccccc1)NCc1cccs1	i
CN(C)c1ccc(C2N(C(=O)N3CCOCC3)CCN2S(=O)(=O)c2ccccc2)cc1 (stereo not drawn)	0.3
CNCCCC12CCC(c3ccccc31)c1ccccc12	i
CCCc1cc(-c2[nH]ncc2-c2ccc3c(c2)OCCCO3)c(O)cc1OC	i
CC(OC(=O)C1CCCO1)C(=O)NC1CCCC1 (stereo not drawn)	i
COc1ccc(Br)c(/C=N/NC(=O)COc2ccc(-c3ccccc3)cc2)c1	2.2
CC(=O)N1CCc2cc(S(=O)(=O)NC(Cc3ccccc3)C(=O)Nc3cc(C)ccn3)ccc21 (stereo not drawn)	0.8
Cc1ccc2c(C)c(C(=O)Nc3c(C)n(C)n(-c4ccccc4)c3=O)oc2c1	i
Oc1ccc(N=Nc2n[nH]c(-c3ccc(Cl)cc3)n2)cc1	0.2
CCC(=O)N1c2ccccc2-c2nnc(SC)nc2OC1c1ccc(OC)c(OC)c1 (stereo not drawn)	1.2
CC(=O)OC1=C(C#N)Cn2ccc3cccc1c32	2.5
CCOC(=O)N1CCN(C(=O)c2ccc(N(C)S(C)(=O)=O)cc2)CC1	1.9
C=COC(=O)CSc1nc(-c2cccs2)ccc1C#N	i
CCc1nnc2n1N=C(c1ccc(-c3cc(Cl)ccc3Cl)o1)CS2	0.2
c1ccc2sc(Cc3nnc4n3CCCCC4)nc2c1	i

(listing goes on)
SMILES	H5N1 CPE
CN(Cc1cccs1)CC(O)COCc1ccco1 (stereo not drawn)	i
CCCNS(=O)(=O)c1ccc(OCC(=O)NCc2ccc3c(c2)OCO3)cc1	0.1
Fc1cccc(Cl)c1CSc1ncn[nH]1	0.7
CCOc1ccc(C(=O)NCc2ccccn2)cc1	0.1
CN(C)CCCNC(=O)c1ccc(Cl)c(S(=O)(=O)N(C)c2ccccc2)c1	0.2
CCCCNc1nc2ccccc2[nH]1	i
Cn1c(CN2CCCC2)nc2cc(NC(=O)C3CCCCC3)ccc21	i
Cc1cc(-n2c(C)cc(C(=O)CN3C(=O)NC4(CCCCCC4)C3=O)c2C)no1	i
O=C(Nc1cccc2ccccc12)/C(=C/c1ccc([N+](=O)[O-])cc1)NC(=O)c1ccccc1	i
Cc1sc(NC(=O)CSc2nnc3scc(-c4ccccc4)n23)c(C#N)c1C	0.3
COc1ccc(-n2c(=O)[nH]cc(C(=O)N3CCCc4ccccc43)c2=O)cc1	i
Cc1ccccc1C(=O)NNC(=O)c1ccoc1C	0.1
Cc1ccc(SC(C)C(=O)NCC(C)C)cc1 (stereo not drawn)	0.3
Cc1ccccc1C(=O)NNC(=S)NC(=O)COc1ccccc1	0.2
COc1ccc(CCCc2nnc(SCC(=O)N/N=C\c3ccc(O)c(OC)c3)o2)cc1C	0.5
COc1ccc(OCC(=O)Nc2ccc(S(=O)(=O)N3CCOCC3)cc2)cc1	i
O=S(=O)(c1ccc(C2CCCCC2)cc1)N1CCCC1	1.2
Cc1noc(C)c1COC(=O)CCc1ccc(S(=O)(=O)N2CCCCC2)cc1	1.4
COC(=O)N(C)c1ccccc1C(=O)N1CCOCC1	0.7
Cc1cccc(Cn2cnc3c(nnn3Cc3ccc(Cl)cc3)c2=O)c1	i
CCOC(=O)CCP(=O)(O)C(O)c1ccc(OC)cc1 (stereo not drawn)	i
Cc1cc2c(C(F)(F)F)cc(=O)oc2c2c1NCCC2	i
Cc1cc(N2CCC(C(=O)NCC3CC3)CC2)nc(-c2ccccc2)n1	0.4
CC(C)[C@H](NC(=O)C1(c2ccccc2)CCN(C(=O)OC(C)(C)C)CC1)C(=O)O	0.8
Fc1ccc(C2CC(c3ccc(F)cc3)n3ncnc3N2)cc1 (stereo not drawn)	0.3

The results go on.
SMILES	H5N1 CPE
c1ccc(-c2ccc(CN3CCN(c4ncccn4)CC3)cc2)cc1	0.8
O=C(Nc1ccc(F)cc1F)c1cc2ncc(Br)cn2n1	i
O=C(NCCN1C(=O)C2C3C=CC(C3)C2C1=O)Nc1ccccc1 (stereo not drawn)	0.7
O=C1c2ccccc2C(=O)N1CC1c2ccccc2CCN1C(=O)N1CCOCC1 (stereo not drawn)	i
Cc1ccc(C(=O)NNC(=O)C(C)Sc2nc(N)cc(N)n2)cc1 (stereo not drawn)	0.2
O=C(CCc1ccccc1)Nc1nc2nc(-c3ccccc3)cc(=O)n2[nH]1	i
COc1ccccc1N1CCN(C(=O)c2sc3nc(-c4ccccc4)cn3c2C)CC1	i
COCc1cc(C)nc2sc(C(=O)Nc3nccs3)c(N)c12	0.5
CC(C)C1N=C2c3ccccc3N=C(SCC#N)N2C1=O (stereo not drawn)	0.3
O=C1c2ccccc2NC(c2ccc(Cl)cc2Cl)N1O (stereo not drawn)	5.0
CC1CCN(c2ccc(C(=O)N3CCOCC3)cc2[N+](=O)[O-])CC1	i
O=S(=O)(N/N=C\C=C\c1ccccc1)c1ccc(Br)cc1	1.0
COCCCn1c(-c2ccccc2)nc2ccccc2c1=O	1.9
CCOC(=O)Cc1nnc(NC(=O)CSc2nncn2C)s1	0.3
C=C(C)CSc1nc(C)c(Cc2ccccc2)c(=O)[nH]1	0.8
